D2 agonist – Beta-Arrestin HTS for Positive Allosteric Modulators of the Human D2 Dopamine Receptor: Agonists. D(2) dopamine receptor (Homo sapiens), P14416. DiscoveRx PathHunter D2 beta-arrestin, luminescence, 90 min; 100% = 57 uM dopamine signal. activation, % (concentration not given with the values). 360,000 compounds, 0.084% hits. AID 624465, 2012; in the data active = activation above about 40%; inconclusive = about 15% to 40%; inactive = below about 15%; further: the text of the record calls up to 30% inactive
Target sequence (P14416 whole entry, looked up): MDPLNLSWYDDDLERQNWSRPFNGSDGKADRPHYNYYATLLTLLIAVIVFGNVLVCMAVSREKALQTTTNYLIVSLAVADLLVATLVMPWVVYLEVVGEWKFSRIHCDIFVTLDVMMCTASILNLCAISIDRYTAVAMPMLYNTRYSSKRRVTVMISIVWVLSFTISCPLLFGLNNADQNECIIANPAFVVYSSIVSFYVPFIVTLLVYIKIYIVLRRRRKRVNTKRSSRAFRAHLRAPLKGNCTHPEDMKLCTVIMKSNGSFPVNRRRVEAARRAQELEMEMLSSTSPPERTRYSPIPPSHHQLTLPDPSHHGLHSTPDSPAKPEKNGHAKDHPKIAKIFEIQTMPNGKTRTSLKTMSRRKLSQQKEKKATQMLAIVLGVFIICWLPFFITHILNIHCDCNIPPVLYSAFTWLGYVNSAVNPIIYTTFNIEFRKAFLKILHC
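Agonist mode: compounds alone added to overnight-plated D2 PathHunter cells for 90 min at 37 C, with 57 uM final dopamine (EC100) defining full response. Beta-arrestin recruitment detected by chemiluminescent reagent, read after 1 h at ambient temperature.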
TRPML1 agonist – qHTS for Agonists of the Human Mucolipin Transient Receptor Potential 1 (TRPML1); activation, % (concentration not given with the values); AID 624414, 2012; Mucolipin-1 (Homo sapiens), Q9GZU1; TRPML1-expressing cells, Ca2+ dye fluorescence, FDSS; host cell line not named in the record; reference of the full effect not given here; 410,000 compounds, 0.12% hits; in the data active = activation above about 50%; inconclusive = about 30% to 50%; inactive = below about 30%; further: 0% is about no effect; the text of the record puts the active cut at 80%
Target sequence (Q9GZU1 whole entry, looked up): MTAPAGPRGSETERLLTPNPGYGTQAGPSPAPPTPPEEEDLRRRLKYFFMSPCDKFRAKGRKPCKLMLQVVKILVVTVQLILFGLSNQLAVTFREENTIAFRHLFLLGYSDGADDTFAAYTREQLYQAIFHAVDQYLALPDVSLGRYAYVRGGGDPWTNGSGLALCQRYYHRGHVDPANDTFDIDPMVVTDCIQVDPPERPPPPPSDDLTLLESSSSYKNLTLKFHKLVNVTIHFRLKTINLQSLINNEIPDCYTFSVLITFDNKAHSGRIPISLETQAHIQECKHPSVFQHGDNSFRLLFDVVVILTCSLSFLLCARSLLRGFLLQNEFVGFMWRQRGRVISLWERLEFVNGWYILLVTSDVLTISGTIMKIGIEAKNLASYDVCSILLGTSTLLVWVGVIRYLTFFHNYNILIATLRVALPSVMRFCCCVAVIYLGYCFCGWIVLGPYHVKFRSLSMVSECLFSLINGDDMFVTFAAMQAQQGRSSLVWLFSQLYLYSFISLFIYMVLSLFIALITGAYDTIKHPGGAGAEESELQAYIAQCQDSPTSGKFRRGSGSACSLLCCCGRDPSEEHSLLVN
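Calcium fluorescence on an FDSS kinetic reader gave the read-out. Tet-induced TRPML1-DL cells were plated overnight, dye-loaded (Ca8 with quencher, 45-90 min, room temperature, dark), then read 110 s after compound addition, and again 110 s after 4uM final 54-4 (EC80).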
PINK1 expr mod – A Quantitative High throughput Screen to Identify Chemical Modulators of PINK1 Expression. PINK1 immunofluorescence, high-content cytometry, 24 h. Potency, µM (top dose mostly 76.6 µM), inactives show top-dose activation (PINK1 increase), most hits filed as activators. 410,000 compounds, 0.2% hits; active = well fitted activation curve with a large enough effect; inconclusive = small, poorly fitted or top-dose-only effect; inactive = flat fitted curve, though single readings scatter; cell line not stated here;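 further: potency means the concentration at half of the fitted maximal effect; % of control where 0% means no effect; nearly all actives have a fitted effect of over 65% in size; a mitochondrial uncoupler was the plate control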
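PINK1 protein level read as immunofluorescence by microplate cytometer in a fixed, stained stable cell line after 24 h exposure to five compound concentrations, with CCCP as control.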
D2 potentiator – Beta-Arrestin HTS for Positive Allosteric Modulators of the Human D2 Dopamine Receptor: Potentiators | potentiation, % (concentration not given with the values) | D(2) dopamine receptor (Homo sapiens), P14416 | 360,000 compounds, 0.23% hits | DiscoveRx D2 beta-arrestin cells, luminescence, 90 min; 100% = 57 uM dopamine signal; active = potentiation of 50% or more; inconclusive = 30% to 50%; inactive = 30% or less;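 further: tested on top of an EC20 dose of dopamine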
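D2 cells co-treated with compound plus 50 nM dopamine (EC20) for 90 min at 37 deg C to detect potentiation. Beta-arrestin recruitment was read as enzyme-fragment luminescence after 1 h at ambient temperature. Full response was set by 57 uM dopamine.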
TRPML1 inh – qHTS for Inhibitors of the Human Mucolipin Transient Receptor Potential 1 (TRPML1) | Mucolipin-1 (Homo sapiens), Q9GZU1 | TRPML1-inducible cells, Ca2+ dye fluorescence, FDSS; active compounds read low; inhibition of EC80 agonist-evoked calcium signal | activity change, negative = inhibition, % (no concentration beside the values) | 390,000 compounds, 0.02% hits | AID 624415, 2012; in the data active means activity change below about -50%; inconclusive means about -30% to -50%; inactive means above about -30%;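 further: stimulus is agonist 54-4 at its EC80 concentration; on the % scale 0 is the no-effect control and ±100 the full control effect; compound concentration not given in the record; the text of the record puts the active cut at -80%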
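Tet-induced TRPML1-DL cells loaded with Ca8 no-wash calcium dye were read kinetically on FDSS. Compound addition was followed by EC80 agonist 54-4 (4 uM final); inhibition was read over 110 s.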
Six1-Eya2 blk – qHTS Assay for Inhibitors of the Six1/Eya2 Interaction. Homeobox protein SIX1 (Homo sapiens) + Protein phosphatase EYA2 (Homo sapiens), …. AlphaScreen GST-Six1/His-Eya2 binding, biochemical; active compounds read low; control for the full effect not named in the record. activity change, % (test concentration not listed). 360,000 compounds, 0.56% hits. AID 651725, 2012; in the data active = activity change below about -65%; inconclusive = about -30% to -65%; inactive = above about -30%; further: on the % scale 0 is the no-effect control and ±100 the full control effect
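AlphaScreen luminescence read after one hour at 37 °C in darkness. Pin-transferred compounds met GST-Six1 and His-Eya2 protein (5X stock 250 nM/500 nM) plus glutathione donor and Ni-chelate acceptor beads (5X, 50 ug/mL).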
* marks the source's active call; other numbers are inactive results; ? = inconclusive; · = not tested or not shown; [ ] = dose if it differs, or a comment. Not a hit list (roughly 1% active in at least one column).

SMILES	D2 agonist	TRPML1 agonist	PINK1 expr mod	D2 potentiator	TRPML1 inh	Six1-Eya2 blk
CC1(C)[C@@H](O)CC[C@]2(C)[C@H]3C(=O)C=C4[C@@H]5C[C@@](C)(C(=O)O)CC[C@]5(C)CC[C@@]4(C)[C@]3(C)CC[C@@H]12	-2.9	-0.6	1.7%	-4	-3	-3
COc1ccc(Br)cc1C(=O)NC(=S)Nc1ccc(CN2CCOCC2)cc1	2.6	1.2	3.4%	-9	44	-22
O=C(NCc1ccc(F)cc1)N1CCN(S(=O)(=O)c2ccccc2F)CC1	0.1	-0.7	0.4%	-3	-12	-7
CC(=O)Nc1ccc(S(=O)(=O)NC2Cc3ccccc3C2)cc1	0.0	0.3	1.9%	-5	7	7
COC(=O)c1sc(NC(=O)COc2cccnc2[N+](=O)[O-])c(C(=O)OC)c1C	1.5	-0.4	5.0%	-3	55	-4
CN(Cc1nccs1)C(=O)C1CCC(=O)N(CCCc2ccccc2)C1 (stereo not given)	-2.8	0.0	-1.0%	-5	16	6
N#Cc1cc([N+](=O)[O-])cnc1Nc1ccccc1	-6.0	0.4	-0.3%	-4	-3	-12
Cc1ccc(N2CCN(C(=O)c3cn(C)c4ccc(S(=O)(=O)N5CCCC5)cc4c3=O)CC2C)cc1 (stereo not given)	·	1.0	-0.6%	·	2	·
Cc1cccc(NC(=S)N(CCCN(C)C)Cc2cc3cc4c(cc3[nH]c2=O)OCO4)c1	-19	0.0	1.8%	-10	-6	-5
Cc1ccc(NC(=O)C2CCN(S(C)(=O)=O)CC2)cc1C	-3.0	0.2	·	-4	-27	1
Cc1nc2c3cnn(-c4ccccc4)c3ncn2n1	-2.4	2.0	-0.3%	1	-2	-16
CCOC(=O)c1ccc(NC(=O)CCCn2nc(C)c3sc4ccccc4c3c2=O)cc1	·	2.6	1.4%	·	-19	·
COCCNC(=O)c1cc(-c2ccccc2C)n(CC2CC(c3cccc([N+](=O)[O-])c3)=NO2)n1 (stereo not given)	-2.6	0.1	-0.4%	-21	20	1
O=C(CCS(=O)(=O)c1ccc(Br)cc1)Nc1ccc(Br)cc1F	-2.1	2.3	11%	-10	16	3
O=C(c1cccc(S(=O)(=O)N2CCOCC2)c1)N1CCC(Cc2ccccc2)CC1	-1.4	-0.1	-0.7%	-1	-4	-3
COc1ccc(-c2ccc3[nH]c4c(c3c2)CCN2C[C@@H]([C@H](C)O)[C@@H](N(C)C(=O)Nc3cc(Cl)cc(Cl)c3)C[C@@H]42)cc1	-8.9	0.2	14%	-3	49	-14
O=C(Nc1ccccc1N1CCOCC1)C1CCCO1 (stereo not given)	0.4	2.6	0.2%	-15	4	1
CCOc1ccc(CCNC(=O)COC(=O)c2nn(C)c(=O)c3ccccc23)cc1OCC	-3.1	1.4	-4.0%	-67	10	-5
COc1ccc(N/C(=N/c2nc(C)cc(C)n2)NC(=O)c2ccccc2)cc1	0.5	2.0	0.6%	-1	8	6
O=C(Nc1ccc(Cl)cc1)C(Cl)C(=O)c1ccccc1 (stereo not given)	-14	0.8	3.2%	-32	14	-4
Cc1ccc(NC(=O)/C=C\C(=O)NCC(=O)O)cc1	0.6	0.3	2.0%	-1	-7	10
CCCn1c2ccccc2c2cnn(CC(=O)N(CC)c3cc(C)ccc3C)c(=O)c21	·	1.5	-5.2%	·	-18	·
CCOCC(=O)Nc1ccc(S(=O)(=O)NCCc2ccccc2)cc1	-0.8	-0.4	-1.5%	1	-13	8
CCOc1ccc(NC2=NC(C(=O)NCc3ccccc3)CC(=O)N2)cc1 (stereo not given)	-3.6	-0.2	0.7%	-14	-6	2
CCOc1ccc(CNC(=O)Cn2nc(C)n3cccc3c2=O)cc1	·	0.2	0.4%	·	-23	·
Additional records.
SMILES	D2 agonist	TRPML1 agonist	PINK1 expr mod	D2 potentiator	TRPML1 inh	Six1-Eya2 blk
O=C(COC(=O)c1ccc2c(=O)n3c(nc2c1)CCC3)Nc1ccc(OC(F)F)cc1	4.5	1.7	-0.3%	-11	-13	-1
Cc1ccc(/C(O)=C2\C(=O)C(=O)N(c3cc(C)on3)C2c2cccc(Cl)c2)cc1 (stereo not given)	-2.4	0.7	-0.3%	-5	8	1
CCOc1cc(C)nc(N2CCN(C3CCCCC3)CC2)n1	-1.1	-0.4	5.0%[38.3 µM]	-18	-7	7
COCCCNC(=O)c1ccc(CS(=O)(=O)c2cccc(C(F)(F)F)c2)o1	2.0	-0.3	2.4%	0	-9	11
O=C(CSc1ncn(-c2ccccc2)n1)Nc1nncs1	0.5	0.2	4.4%	-8	-9	6
O=C(COC(=O)c1ccccc1Cl)NC(=O)NCc1ccccc1	-2.9	2.2	5.7%	7	85	-11
CCN1CCN(Cc2ccc(OCc3ccccc3)cc2)CC1	-3.0	0.3	6.7%[38.3 µM]	-11	-15	0
CCOC(=O)C1=C(c2ccccc2)NC(=O)NC1c1cc(OCC)c(O)c([N+](=O)[O-])c1 (stereo not given)	-5.7	-1.2	-0.9%	-12	0	-20
O=C(NCc1cc(C(F)(F)F)cc(C(F)(F)F)c1)C1CC(c2cccc([N+](=O)[O-])c2)=NO1 (stereo not given)	0.8	0.5	10%	-7	-3	18
Cc1ccc(CNc2cc(-c3nn4c(C)nnc4s3)ccc2C)s1	-0.5	1.0	-6.6%[38.3 µM]	-6	7	2
COc1cc2c(cc1OC)CN(C(=O)C1CCN(S(=O)(=O)c3ccccc3F)CC1)CC2	-3.0	0.7	-1.3%	-2	6	-1
O=c1c2ccccc2n2c(-c3ccc(F)cc3)nnc2n1Cc1ccccc1	-0.7	-0.2	3.3%	-7	19	-6
O=C(O)Cc1sc(-c2ccccc2)nc1-c1ccccc1	-1.1	-0.3	-1.4%	5	-26	-1
O=c1c(C=NCCCn2ccnc2)c(-c2ccccc2)[nH]n1-c1nc2ccccc2s1	-1.5	0.6	·	-1	-3	-7
CC(C)c1ccc(/C=c2\sc3nc(-c4ccncc4)nn3c2=O)cc1	2.5	-0.3	0.7%	-13	-12	0
CC(C)C[C@H](NC(=O)c1[nH]cnc1C(=O)Nc1ccc(CNC(=O)OC(C)(C)C)cc1)C(=O)OC(C)(C)C	-5.8	0.1	?	4	-1	-4
CCOCCCn1c(SCC(=O)NCc2ccccc2)nc2c(sc3ccccc32)c1=O	·	-0.2	2.3%	·	0	·
Cc1c(C)n(Cc2ccc(F)cc2)c2ccc(C(=O)N3CCN(c4ccc(F)cc4)CC3)cc12	·	0.7	0.4%	·	18	·
Cc1ccc(S(=O)(=O)N2CC(C(=O)O)=CC[C@H]2c2ccc3c(c2)OCO3)cc1	0.0	-0.3	-0.1%	1	2	4
CN(CC/C=C1/c2ccccc2CSc2ccccc21)CCCO	-1.9	1.1	0.7%	-40	14	-6
CCN(CC)S(=O)(=O)N1CCC(C(=O)NC(C)CCc2ccccc2)CC1 (stereo not given)	3.5	0.1	3.2%[38.3 µM]	2	-11	2
Cc1ccc(Cn2c(=O)c3cccnc3n(CC(=O)Nc3cc(Cl)ccc3C)c2=O)cc1	·	-0.6	-1.1%	·	8	·
COc1nc(C)nc2c1ccc1ccccc12	-3.7	-0.7	-1.9%	-17	20	0
COc1cccc(-n2nc(C#N)c(Cl)cc2=O)c1	-4.7	1.3	5.8%	-10	-4	?
Cc1ncc([N+](=O)[O-])n1CC(=O)Nc1cccc(C(F)(F)F)c1	-0.8	-0.4	4.6%	-6	2	0

A second format for six compounds above:
| molecule | D2 agonist | TRPML1 agonist | PINK1 expr mod | D2 potentiator | TRPML1 inh | Six1-Eya2 blk |
| --- | --- | --- | --- | --- | --- | --- |
| O=C(O)Cc1sc(-c2ccccc2)nc1-c1ccccc1 | -1.1 | -0.3 | -1.4% | 5 | -26 | -1 |
| O=c1c(C=NCCCn2ccnc2)c(-c2ccccc2)[nH]n1-c1nc2ccccc2s1 | -1.5 | 0.6 | · | -1 | -3 | -7 |
| CC(C)c1ccc(/C=c2\sc3nc(-c4ccncc4)nn3c2=O)cc1 | 2.5 | -0.3 | 0.7% | -13 | -12 | 0 |
| CC(C)C[C@H](NC(=O)c1[nH]cnc1C(=O)Nc1ccc(CNC(=O)OC(C)(C)C)cc1)C(=O)OC(C)(C)C | -5.8 | 0.1 | ? | 4 | -1 | -4 |
| CCOCCCn1c(SCC(=O)NCc2ccccc2)nc2c(sc3ccccc32)c1=O | · | -0.2 | 2.3% | · | 0 | · |
| Cc1c(C)n(Cc2ccc(F)cc2)c2ccc(C(=O)N3CCN(c4ccc(F)cc4)CC3)cc12 | · | 0.7 | 0.4% | · | 18 | · |

The list goes on:
SMILES	D2 agonist	TRPML1 agonist	PINK1 expr mod	D2 potentiator	TRPML1 inh	Six1-Eya2 blk
C/C(=N\NC(=O)c1cccc(S(=O)(=O)N2CCCCC2)c1)c1ccc(C)o1	0.4	-0.2	0.3%	-5	5	-18
O=C(NC(=S)Nc1cc(Cl)ccc1Cl)c1ccco1	-3.8	-0.4	3.4%	-11	4	8
O=C(COC(=O)CCC(=O)c1ccc(F)cc1)Nc1ccc(F)cc1F	1.9	-0.6	1.2%	-1	19	-2
Cc1ccc(-n2c(SCC(=O)NCC3CCCO3)nnc2-c2ccoc2C)cc1 (stereo not given)	-3.0	5.9	-2.7%	-14	12	-3
CN(C)CCCn1c2c(c(SCC(=O)Nc3cccc4ccccc34)nc1=O)CCC2	2.5	0.0	1.1%	0	-6	6
O=C(c1ccc2c(c1)OCO2)C1CCCN(Cc2cccn2-c2cccnc2)C1 (stereo not given)	-3.9	2.0	1.1%	-15	-15	6
Cc1nc2ccn(Cc3cccs3)c(=O)c2cc1C(=O)NCc1ccc(Br)cc1	·	3.3	7.1%	·	7	·
CCCC(=O)Nc1sc2c(c1C(=O)OCC)CC(C)(C)OC2	-2.5	-0.5	2.0%	-6	4	6
Cc1cc(OC(=O)c2ccccc2Cl)c([N+](=O)[O-])c(=O)[nH]1	-6.2	-0.6	5.0%	-9	-7	-10
CNC(=O)C(C)Sc1ccc(S(=O)(=O)N2CCOCC2)cn1 (stereo not given)	-4.6	-0.3	1.9%	4	-7	6
CN1CCN(C(=O)c2cnn(-c3ccccc3)c2NC(=O)c2ccccc2Cl)CC1	-3.5	0.6	0.7%	-55	13	0
C#CCOCCOCCOCCNc1nc(N2CCOCC2)nc(N2CCN(C(=O)[C@H]([C@@H](C)CC)n3cc(CCCCN)nn3)CC2)n1	-3.4	-1.2	-0.9%	-45	-2	3
Cc1c(C(=O)NC2CCCC2)oc2ccccc12	6.1	3.2	0.8%	0	-4	14
O=C(NS(=O)(=O)Nc1ccc(Br)cn1)c1c[nH]c2ccccc12	-2.9	1.8	-0.8%	-3	4	12
CC1Sc2n(c3ccccc3[n+]2C)N=C1c1ccccc1 (stereo not given)	-2.7	-0.6	-0.5%	-10	49	0
COc1ccc(NC(=S)Nc2ccc3nsnc3c2)cc1	3.8	-0.3	0.3%	27	-30	-5

Screening data from PubChem.
